Beta2AR agonist: beta2AR agonists driving receptor internalization, primary screen, cell-based, FAP fluorogen, flow cytometry; Beta-2 adrenergic receptor (Homo sapiens), P07550; Am2.2-beta2AR cells; reference of the scale not given here; response, % (concentration not given with the values); actives 0.43% (n = 340,000); AID 504454, 2011;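 active = response above a set limit, near 3 SD of response in nonfluorescent compounds, cut at about 42% in these data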;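 note: stock transfer was 100 nL into about 11 µL; a reference agonist was the positive control; negative values mostly stem from fluorescent compounds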
Target sequence (P07550 whole entry, looked up): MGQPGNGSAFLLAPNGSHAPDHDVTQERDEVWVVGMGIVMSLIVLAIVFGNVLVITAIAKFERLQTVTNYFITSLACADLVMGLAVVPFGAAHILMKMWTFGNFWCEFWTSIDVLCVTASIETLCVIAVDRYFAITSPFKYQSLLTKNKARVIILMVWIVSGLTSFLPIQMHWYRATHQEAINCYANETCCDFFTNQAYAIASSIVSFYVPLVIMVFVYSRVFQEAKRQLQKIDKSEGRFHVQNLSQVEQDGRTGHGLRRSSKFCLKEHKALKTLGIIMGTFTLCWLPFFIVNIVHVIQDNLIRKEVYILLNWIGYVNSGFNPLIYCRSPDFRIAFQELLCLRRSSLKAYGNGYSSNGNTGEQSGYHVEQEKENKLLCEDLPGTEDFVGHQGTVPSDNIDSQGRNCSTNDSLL
Vif A3G: inhibitors of Vif binding to APOBEC3G peptide, primary screen, biochemical, TR-FRET, GST-Vif 1-94, biotin-A3G peptide, dose response retest (AID 1117319). one-dose inhibition, %; IC50 in µM for titrated hits. actives 0.57% (n = 260,000). TR-FRET GST-Vif / biotin-A3G peptide binding; higher % means a stronger effect; test concentration not given here; strong numbers were not always called active. Virion infectivity factor (Human immunodeficiency virus type 1 group M subtype B (isolate …;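 active = above the screen mean plus three standard deviations and confirmed in dose response; inconclusive = results disagree or hit not tested in dose response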;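 note: Vif residues 1-94 fused to GST binding biotinylated APOBEC3G peptide 110-148; 0% = full assay without inhibitor and 100% = GST in place of GST-Vif; retest series ran down from 100 µM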
Calb FLC: C. albicans growth inhibition with fluconazole, primary screen, CaCi-2 strain, Alamar Blue fluorescence; C. albicans CaCi-2 (fluconazole-resistant clinical isolate) + fluconazole, 48 h; growth inhibition, % (concentration not given with the values); actives 0.57% (n = 300,000); AID 1979, 2009;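 active = most replicates above 75%; inconclusive = exactly half above 75%; inactive = most below 75%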;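 note: all wells also contain fluconazole at 8 µg/ml as a sub-toxic cotreatment; 0% = median of DMSO wells and 100% = median of geldanamycin control wells; wells of about 8 µL received 7.5 nL stock; the first replicate is given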
RanGTP-Imp inh: inhibitors of RanGTP-importin-beta interaction, primary screen, biochemical, FRET, CFP-Ran, YFP-importin-beta, homogeneous | actives 1.1% (n = 300,000) | inhibition, % (test concentration not listed) | cell-free CFP-Ran/YFP-importin-beta FRET ratio | AID 2216, 2009;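 active = most replicates above 15%; inconclusive = exactly half above 15%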;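 note: 0% = DMSO wells and 100% = Ran loaded with GDP instead of GTP; wells of about 40 µL received 100 nL stock; the first replicate is given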
HNF4A DNA FP: change in binding of human HNF4A to DNA, primary screen, biochemical, fluorescence polarization, FITC-DNA | actives 0.3% (n = 360,000) | AID 1224865, 2016 | 1 h | activity change, % at 10 µM; in the data active = activity change above about 30%, passing the limit was not always enough;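 note: controls were the assay level and a saturating level of protein; the project sought stronger binding though the title names inhibitors; some compounds called inactive have numbers as strong as hits; positive values seem to mean higher polarization but the record does not say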
Target sequence (P41235 whole entry, looked up): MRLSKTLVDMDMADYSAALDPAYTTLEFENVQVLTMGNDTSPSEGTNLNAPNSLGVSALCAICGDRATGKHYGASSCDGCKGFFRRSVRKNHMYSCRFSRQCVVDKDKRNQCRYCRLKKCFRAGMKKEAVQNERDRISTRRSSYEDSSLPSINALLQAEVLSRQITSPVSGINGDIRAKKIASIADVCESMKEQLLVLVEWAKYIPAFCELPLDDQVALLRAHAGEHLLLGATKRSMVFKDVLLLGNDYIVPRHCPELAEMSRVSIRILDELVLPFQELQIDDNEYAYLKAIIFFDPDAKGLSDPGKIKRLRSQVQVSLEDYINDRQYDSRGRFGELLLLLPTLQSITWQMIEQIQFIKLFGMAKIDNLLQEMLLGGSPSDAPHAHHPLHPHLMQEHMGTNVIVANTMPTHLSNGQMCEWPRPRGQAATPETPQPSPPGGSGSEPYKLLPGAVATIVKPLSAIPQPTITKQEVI
LANA-H2A inh: blockers of LANA interaction with H2A/H2B – biochemical, FP readout, HTS, primary screen; Protein LANA1 (Human herpesvirus 8 type P (isolate GK18)), Q9QR71; cell-free LANA-H2A/H2B peptide, fluorescence polarization; inhibition, % (no concentration beside the values); actives 0.6% (n = 320,000); in the data active = inhibition mostly above about 10%, no sharp cut-off; inactive = mostly below about 6.7%;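 note: stock transfer was 7.5 nL into about 10 µL; 0% = median of vehicle wells and 100% = median of positive control wells; one replicate is shown; the record names a cut of 25% in any replicate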
ALR H2O2 inh: inhibitors of human ALR sulfhydryl oxidase, primary screen, biochemical, H2O2 detection, HRP-luminol luminescence, single point; actives 3.8% (n = 290,000); FAD-linked sulfhydryl oxidase ALR (Homo sapiens), P55789; AID 485317, 2010; purified ALR, DTT oxidation; inhibition, % (no concentration beside the values);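 active = mean and each replicate at 75% or more; inconclusive = only one of the two met; inactive = neither met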;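 note: stock transfer was 7.5 nL into about 7.5 µL; 0% = neutral wells and 100% = wells with inactivated enzyme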
Target sequence (P55789 whole entry, looked up): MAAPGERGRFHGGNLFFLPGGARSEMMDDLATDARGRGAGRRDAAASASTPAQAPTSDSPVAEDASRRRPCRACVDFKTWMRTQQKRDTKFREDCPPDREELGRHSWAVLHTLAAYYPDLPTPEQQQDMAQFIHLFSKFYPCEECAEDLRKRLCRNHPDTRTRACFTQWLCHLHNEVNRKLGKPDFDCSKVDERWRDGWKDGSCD
* = called active by the depositor; ? = inconclusive; / = no result given; & = joins results of further samples.

entry	molecule	Beta2AR agonist	Vif A3G	Calb FLC	RanGTP-Imp inh	HNF4A DNA FP	LANA-H2A inh	ALR H2O2 inh
1	CC(SC1=NCCN1S(=O)(=O)c1ccc(F)cc1)c1ccccc1 (centres undefined)	10	-5%	12	-5.6	1.6	-1.2	-5
2	CC(=O)Nc1ccc(S(=O)(=O)NCC2CCC(C(=O)NC(C)c3ccccc3)CC2)cc1 (centres undefined)	2	-7%	-16	3.6	-4.8	-2.3	/
3	O=C(OCc1cc([N+](=O)[O-])cc2c1OCOC2)c1ccccn1	0	1%	?	?	4.9	-10	-1
4	CCC(C)N(C(=O)COC(=O)Cc1n[nH]c(=O)c2ccccc12)C1CCS(=O)(=O)C1 (centres undefined)	2	2%	9	3.1	3.6	0.1	/
5	Cc1cc(C(=O)CN2C(=O)NC(CC(C)C)C2=O)c(C)n1-c1ccccc1F (centres undefined)	1	-1%	5	0.5	-0.5	-1.7	-28
6	Cc1ccc(-c2csc(NC(=O)CCNC(=O)c3ccc(Cl)cc3)n2)cc1	3	-9%	-15	-2.8	-3.5	3.5	5
7	COc1ccc(S(=O)(=O)NCCc2ccc(F)cc2)cc1	-1	-3%	-15	-3.2	4.8	3.0	/
8	Cc1ccc(CC(=O)NCCS(=O)c2ccc(Cl)cc2)cc1 (centres undefined)	3	?	4	-2.9	-2.5	4.4	-12
9	Cc1noc(C(=O)N2CCN(Cc3ccc4c(c3)OCO4)CC2)c1Cl	12	/	-12	?	-0.1	2.2	/
10	O=C(Nc1cccc([N+](=O)[O-])c1)c1cc2ccccc2cc1O	23	2%	40	1.0	-11	2.7	14
11	COc1ccc(CN(C)C(=O)CCN(c2ccccc2)S(=O)(=O)c2ccc(C)cc2)c(OC)c1	-4	/	3	?	-0.5	-0.4	0
12	C/C(N)=C(/C#N)C(=O)CSc1nnc(Cc2ccccc2F)n1N	0&5	-9%&-1%	1	0.0	-2.6&0.4	2.0	-5
13	CCOc1ccc(OCCC(=O)OCC(=O)Nc2ccc(N3CCOCC3)cc2)cc1	6	8%	-1	0.4	-2.0	1.5	6
14	COC(=O)c1cc2ccccc2c(-c2c(O)ccc3ccccc23)c1O	12	/	-12	1.9	-0.2	5.8	13
15	Cc1ccc(N(C(=O)Cn2nnc3ccccc32)C(C(=O)NCc2ccco2)c2ccc(C)o2)cc1 (centres undefined)	13	14%&2%	-42	-0.5	2.0	/	/
16	CC(C#N)Sc1nnc(Nc2ccccc2)s1 (centres undefined)	-3	-4%	?	-0.2	2.0	-2.0	0
17	O=C(NCc1n[nH]c(=S)n1-c1cccc(C(F)(F)F)c1)c1ccco1	9	/	0	-0.4	-2.3	1.8	20
18	CC(=O)N[C@@H](C)c1nc2ccccc2n1CCCN1CCN(c2nc(-c3ccc(C)cc3)cs2)CC1	1	/	-10	8.7	2.4	0.6	1
19	O=Cc1ccc2noc(-c3ccc(F)cc3)c2c1	46*	6%	21	-14	-25	3.6	11
20	Clc1cccc(OCCN2CCCC2)c1	3	/	-3	0.8	-0.2	11	-16
21	CCOC(=O)Cn1cc(/C=C(\C#N)C(=O)N2CCOCC2)c2ccccc21	6	0%	2	-0.7	3.0	1.7	3
22	Cc1ccc(S(=O)(=O)N2CCSC2)cc1C	-3	-3%	2	-5.4	-2.8	-2.0	-22
23	O=c1cc(-c2ccc(O)cc2)oc2c([C@@H]3O[C@H](CO)[C@@H](O)[C@H](O)[C@H]3O)c(O)c([C@@H]3O[C@H](CO)[C@@H](O)[C@H](O)[C@H]3O)c(O)c12	-5	/	11	3.0	2.1	8.3	/
24	CC(=O)N(C)c1ccc(NC(=O)Cc2cccs2)cc1	4	/	8	?	-3.5	-2.8	-11
25	CCN1CCN(C(=O)C2CCC(CNS(=O)(=O)c3ccccc3)CC2)CC1 (centres undefined)	-3	-2%	-5	-1.4	-0.5	9.5	1
26	COC(=O)c1sccc1NC(=O)CSCCc1ccccn1	-4	-6%	-5	1.7	-1.6	-7.7	-1
27	CC(C)c1ccc(S(=O)(=O)NC2CCCC2)cc1	3	0%	-14	0.3	0.1	0.2	3
28	CCOc1ncccc1C(=O)OCc1cc(=O)oc2c(C)c(C)ccc12	1	-4%	-1	-6.4	-11	/	/
29	COc1ccc(Cl)cc1NC(=S)NCCc1c[nH]c2ccccc12	5	3%	-9	0.2	0.9	2.9	35
30	Cc1ccccc1CN1CCN(C(=O)c2ccco2)CC1	2	-3%	-3	1.4	0.3	5.4	-5
31	C=C1c2cc(C)ccc2NC(=O)N1c1ccc(C)cc1	-7	12%	-5	-4.5	-5.1	4.0	/
32	CCC(CC)C(=O)Nc1cc(OC)c(OC)cc1C(=O)O	92*	3%	-1	0.0	0.4	-5.5	-7
33	CCSc1nnc([C@H](C)NC(=O)OC(C)(C)C)o1	5	0%	-20	-3.5	2.9	-6.2	-2
34	O=C(CN1CCN(C(=O)C2COc3ccccc3O2)CC1)Nc1ccccc1 (centres undefined)	-5	/	-4	1.4	-0.8	3.7	-2
35	Cc1c(C(=O)NCc2ccccn2)sc2nc(-c3ccccc3)cn12	-4	?	1	-3.2	3.6	5.0	33
36	CCOc1ccc(C(=O)NCC2(c3ccccc3)CCOCC2)cc1	0	/	16	-4.2	2.7	-11	-1
37	C/C(=N\NS(=O)(=O)c1ccc(Br)cc1)c1ccncc1	2	-11%	-2	-0.2	-0.3	1.6	-7
38	Cn1c(=O)n(C)c2cc(NS(=O)(=O)c3cccs3)ccc21	7	2%	-6	-0.2	-5.5	1.4	-1
39	Cc1nn(CC(=O)NCCCN2CCC(N3CCCCC3)CC2)c(=O)c2cc(-c3ccccc3)nn12	-2	/	0	1.3	1.3	0.6	-34
40	COC(=O)C(NS(C)(=O)=O)(c1c(C)[nH]c2ccccc12)C(F)(F)F (centres undefined)	4	5%	-16	-5.4	-0.8	-0.3	-33
41	CCOc1cccc(C(=O)N/N=C/c2coc3ccccc3c2=O)c1	-10	-6%	0	?	-2.4	3.6	27
42	Cc1ccc(N(CC(=O)N2CCCCC2)S(=O)(=O)c2ccc(C)cc2)cc1	-4	4%	-3	-3.9	1.0	-5.6	-1
43	COc1ccc(/C=N/NC(=O)c2ccco2)cc1Cn1nc(C)c([N+](=O)[O-])c1C	17	5%	-6	1.6	0.7	-1.7	26
44	CCCCCC1C/C(=N\O)C=C(C)C1C(=O)OC (centres undefined)	3	1%	0	1.5	2.6	0.5	-6
45	CC(=O)c1cccc(NC(=S)NC(=O)Cc2ccccc2)c1	-6	0%	17	0.9	3.0	-5.3	6
46	COc1cccc(/C=C/C(=O)OCC(=O)Nc2ccc3[nH]c(=O)[nH]c3c2)c1OC	-1	/	-1	-2.4	0.3	-1.7	-12
47	N#Cc1cn(CCOc2ccccc2F)c2ccccc12	4	68%	17	-3.1	3.0	0.4	/
48	O=C(C1=C[C@H](c2coc3ccccc3c2=O)C[C@H](OCCCCO)O1)N1CCOCC1	-11	7%	-9	-1.9	3.7	5.2	/
49	CCC(=O)Nc1ccc(C(=O)n2nc(C)cc2C)cc1	-2	?	3	0.3	-2.4	-1.7	-1
50	O=[N+]([O-])c1cc(-c2cnc3ccccc3n2)ccc1Oc1ccc(Cl)cc1	-14	/	-15	-5.0	2.8	-5.4	-7
51	CCOC(=O)c1c(C)c(C(=O)NCc2cccs2)c(C)n1C	3	4%	3	4.9	5.3	0.7	-3
52	Cc1nnc(N2CCCC(C(=O)NCc3cccc(F)c3)C2)c2nn(-c3ccccc3)c(C)c12 (centres undefined)	-7	/	-23	-6.1	10	0.9	2
53	CSc1cccc(N2CC(C(=O)NCCN3C(=O)S/C(=C\c4cccnc4)C3=O)CC2=O)c1 (centres undefined)	-7	7%	4	2.6	1.2	1.8	-3
54	COc1ccccc1CNS(=O)(=O)c1c(C)nc2scc(C)n2c1=O	-1	/	15	0.2	-0.7	0.0	3
55	Cc1ccccc1-n1c(=O)n(Cc2ccc(C(=O)O)cc2)c(=O)c2[nH]cnc21	5	-5%	-2	0.4	-3.6	-8.2	-3
56	Cc1ccc(S(=O)(=O)Nc2nc3ccccc3s2)cc1	6	-13%	41	-1.2	4.0	-3.2	-5
57	COc1cccc2cc(-c3ccnc(N)n3)oc12	-6	/	9	-4.0	2.2	0.4	-5
58	COc1ccc(OC)c(S(=O)(=O)NCCCN2CCCC2=O)c1	7	-3%	5	3.0	1.6	1.8	-18
59	CN(CC(=O)Nc1cccc(F)c1)C(=O)c1ccc(-n2cncn2)c([N+](=O)[O-])c1	2	/	-9	/	-2.2	-1.8	-10
60	CC(=O)Cc1nsc(NC(=O)c2ccc(Br)o2)n1	-2	-4%	45	-3.2	-0.5	-3.3	2

A draw from above in order of length of the SMILES, high to low.
entry	molecule	Beta2AR agonist	Vif A3G	Calb FLC	RanGTP-Imp inh	HNF4A DNA FP	LANA-H2A inh	ALR H2O2 inh
45	CC(=O)c1cccc(NC(=S)NC(=O)Cc2ccccc2)c1	-6	0%	17	0.9	3.0	-5.3	6
33	CCSc1nnc([C@H](C)NC(=O)OC(C)(C)C)o1	5	0%	-20	-3.5	2.9	-6.2	-2
56	Cc1ccc(S(=O)(=O)Nc2nc3ccccc3s2)cc1	6	-13%	41	-1.2	4.0	-3.2	-5

Remaining list, next part:
entry	molecule	Beta2AR agonist	Vif A3G	Calb FLC	RanGTP-Imp inh	HNF4A DNA FP	LANA-H2A inh	ALR H2O2 inh
61	CC(C)C(NC(=O)c1cccs1)c1nnc(SCC(=O)Nc2nccs2)n1C (centres undefined)	-2	-7%	6	1.3	2.5	-5.5	-1
62	COc1ccc(NC(=O)c2c(C)cc(=O)oc2C)c(OC)c1	5	2%	20	-5.8	1.3	-0.1	-10
63	O=C(C1CCN(S(=O)(=O)c2cccc3nsnc23)CC1)N1CCc2ccccc21	-5	1%	56	-0.4	4.1	-3.3	-19
64	O=C(O)C1CC=CCC1C(=O)Nc1ccc(N2CCN(Cc3ccccc3)CC2)cc1 (centres undefined)	5	/	-1	-3.5	-1.7	2.3	-3
65	CC(C(=O)Nc1ccc(F)c(F)c1F)N(C)Cc1cccs1 (centres undefined)	8	/	33	0.6	2.2	-8.9	-11
66	CC(=O)N1CCN(C(=O)COC(=O)/C=C/c2ccccc2[N+](=O)[O-])CC1	-1	-1%	/	/	4.9	-4.1	-2
67	O=C(CNc1ccccc1)Nc1ccc(F)cc1	2	1%	-5	0.6	-0.6	-5.3	-1
68	c1ccc2c(c1)NC(CN1CCOCC1)CO2 (centres undefined)	-4	23%	2	-2.3	4.2	0.0	45
69	Cc1c(C(=O)N2CCCC2)c(S(=O)(=O)N2CCN(c3ccccc3F)CC2)c(C)n1C	2	/	14	0.7	1.9	-1.5	-1
70	COc1cc(C(C(=O)NC2CCCC2)N(C(=O)c2snc(C(N)=O)c2N)C2CCCC2)cc(OC)c1OC (centres undefined)	5	0%	3	3.1	-2.1	-6.7	/
71	COCCOCCOCCC(=O)NC1CC2CCC1(C)C2(C)C (centres undefined)	-4	-4%	-11	5.5	5.9	-4.7	-1
72	CC(C)CCN1CC(C(=O)NCc2ccc(F)cc2)CC1=O (centres undefined)	7	3%	-22	2.4	-2.7	2.1	1
73	CC(C)n1cc(C(=O)c2cc(Br)ccc2O)cc(C#N)c1=O	-7	2%	-26	3.2	0.2	3.2	16
74	CCc1ccccc1NC(=O)Cn1nnc(-c2cccs2)n1	-12	24%	0	-5.5	2.5	-0.9	-5
